Source: PubChem BioAssay (Broad Institute)
Hedgehog – Hh protein inhibition, biochemical readout – plate reader, single concentration, primary screen (AID 588832); 8,000 tested, under 10 active; inhibition, % at 30.3 µM; Biochemical plate reader assay, Hedgehog inhibition; stronger effect = higher value; in the data active = inhibition from about 57%;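 also: 0% = neutral control wells and 100% = positive control wells; cholesterol-driven self-cleavage of fly hedgehog protein by fluorescence polarization; read one hour after cholesterol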
Active calls of the source: *. An excerpt; the hit share may differ from the screen's.

SMILES	Hedgehog
CCOCCCNC(=O)CC1Oc2ccc(C)cc2NC1=O (stereo not drawn)	8
CCOC(=O)C(CC)Sc1nc2c(cnn2-c2ccccc2)c(=O)[nH]1 (stereo not drawn)	15
CCn1cc(S(=O)(=O)CC(=O)Nc2cc(C)ccc2C)c2ccccc21	5
CCCOc1ccc(C2c3c(oc4cc(C)c(C)cc4c3=O)C(=O)N2CCCN2CCOCC2)cc1 (stereo not drawn)	17
CCOc1cc(/C=C2\C(=N)N3N=C(N4CCCCC4)SC3=NC2=O)ccc1OC(=O)c1ccco1	5
Cc1cc2[nH]c(=O)c(=O)[nH]c2cc1S(=O)(=O)Nc1cccc(Cl)c1C	21
CCOc1ccc(NC(=O)CSc2nc3c(c(=O)n2-c2ccccc2OC)SCC3)cc1	7
CN(CC1CCCO1)S(=O)(=O)c1ccc(C(=O)Nc2nc3cc4c(cc3s2)OCO4)cc1 (stereo not drawn)	0
COc1ccc(CNC(=O)CS(=O)Cc2nc(-c3ccc(C)cc3)oc2C)cc1 (stereo not drawn)	2
CC1CN(C(=O)CCC(=O)NC2CCN(Cc3ccccc3)CC2)c2ccccc2O1 (stereo not drawn)	7
CCc1ccccc1NC(=O)[C@@H]1CCC(=O)N1C1OC(=O)c2ccccc21 (stereo partly drawn)	7
COc1ccccc1CNC(=O)Cn1cc2c(n1)CCCC2	11
O=C(NCc1ccco1)C(=O)NCC1OCCN1S(=O)(=O)c1ccc(F)cc1 (stereo not drawn)	10
COc1cccc(NC(=O)c2ccc3c(c2)N(C)CCS3)c1	5
CCOc1ccc(NC(=O)c2ccc3c(c2)N(Cc2ccc(F)cc2)C(=O)CS3=O)cc1 (stereo not drawn)	25
Cc1ccc(N(C)C(=O)CCS(=O)(=O)c2cc3c(cc2Cl)NC(=O)CO3)cc1	4
COCCCN(C)C1CCN(C(=O)Nc2ccc(F)cc2)CC1	1
COc1ccc(OC)c(NC(=O)C2CCCN(S(=O)(=O)c3c(C)nn(C)c3C)C2)c1 (stereo not drawn)	2
Cc1nc2sccn2c(=O)c1S(=O)(=O)N1CCN(c2ccccc2)CC1	7
Cn1c(C(=O)NCCCN2CCCCCC2)cc2c(=O)n(C)c3ccccc3c21	11

Single values from the results shown:
`CCOCCCNC(=O)CC1Oc2ccc(C)cc2NC1=O` (stereo not drawn) – Hedgehog: 8
`COc1ccccc1CNC(=O)Cn1cc2c(n1)CCCC2` – Hedgehog: 11
`CN(CC1CCCO1)S(=O)(=O)c1ccc(C(=O)Nc2nc3cc4c(cc3s2)OCO4)cc1` (stereo not drawn) – Hedgehog: 0
`O=C(NCc1ccco1)C(=O)NCC1OCCN1S(=O)(=O)c1ccc(F)cc1` (stereo not drawn) – Hedgehog: 10

The listing continues:
SMILES	Hedgehog
O=C(NCc1ccc2[nH]c3c(c2c1)CCCC3)c1ccc(S(=O)(=O)N2CCOCC2)cc1	8
COc1ccc(S(=O)(=O)Cc2ccc(C(=O)NCc3ccco3)o2)cc1	12
CCOC(=O)c1ccc(NC(=O)CSc2nc3c(c(=O)n2CC)SC(C)C3)cc1 (stereo not drawn)	10
CSC1=NCCN1C(=O)C(C)(C)Oc1ccc(Cl)cc1	0
CC(C)Nc1ccccc1	4
COc1cccc(NC2c3ccccc3C(=O)N2Cc2ccco2)c1 (stereo not drawn)	5
CCOc1ccc(C2CC(c3ccccc3C)n3nc(N)nc3N2)cc1 (stereo not drawn)	4
Cn1cc(S(=O)(=O)CC(=O)N2CCCc3ccccc32)c2ccccc21	15
Cc1cccc(C(=O)O)c1[N+](=O)[O-]	11
O=C(C(Cc1ccccc1)n1cccc1)N1CCN(Cc2ccccc2)CC1 (stereo not drawn)	0
COc1ccc(-c2noc(N3CCC(C(=O)NCc4ccccc4Cl)CC3)n2)cc1	5
COc1ccc(C(=O)NCCc2cn3ccc(C)cc3n2)cc1	3
CCC(=O)N=c1sc2cc(F)cc(F)c2n1C	5
C=CCNC(=S)NCC=C	2
COc1ccccc1CNC(=O)CCCC(=O)n1ncc2cc(C)ccc21	5
C=C(C)[C@@H]1CC[C@]2(C(=O)O)CC[C@]3(C)C(CCC4[C@@]5(C)CC[C@H](O)C(C)(C)C5CC[C@]43C)C12 (stereo partly drawn)	2
CCCCN(C)C(=O)c1cn(CC)c2ccc(S(=O)(=O)N(C)C)cc2c1=O	8
Cc1ccc(-c2nc(NC(=O)CSc3ccc4ccccc4n3)ns2)cc1	20
COc1cc2[nH]c3ccccc3c2cc1C	7
Cc1cc(=O)oc2c3c(cc(OCC(=O)NCC(O)c4ccccc4)c12)OC(C)(C)CC3 (stereo not drawn)	3
CC1Oc2cc3oc4c(O)c(O)ccc4c(=O)c3c(O)c2C1(C)C (stereo not drawn)	7
CCOCCCNC(=O)Cc1cc(=O)[nH]c(=O)[nH]1	5
COC(=O)CNC(=O)CN(c1ccc(OC)cc1OC)S(=O)(=O)c1ccccc1	7
O=C(OCC(O)C(O)C(O)COC(=O)c1ccccc1)c1ccccc1 (stereo not drawn)	11
CC1=CC(=O)CC(C)(C)C1(O)/C=C/C(C)=C/C(=O)O (stereo not drawn)	0
CCCCCCCC(=O)O	7
CCOC(=O)C1CCN(C(c2cc(OC)c(OC)c(OC)c2)c2sc3nc(C)nn3c2O)CC1 (stereo not drawn)	5
CCOc1ccc(CCNC(=O)CCc2nnc3ccc(N4CCCC4)nn23)cc1OCC	6
Cn1cccc1Cc1nnc(SCC(=O)Nc2nccs2)n1CCc1ccccc1	0
COC(=O)[C@]12C(=O)C(C)=C(O)[C@@]1(C)C(C)=CC1[C@@]34CC[C@@H](OC(C)=O)C(C)(C)C3C(C[C@]12C)OC4=O (stereo partly drawn)	5
O=C1c2ccccc2C(O)N1Cc1ccc2c(c1)OCO2 (stereo not drawn)	15
CCc1ccc(NC(=O)c2cc(CC(C)C)on2)cc1	19
CCN1C(=O)c2ccccc2S(=O)c2ccc(C(=O)NCc3ccccn3)cc21 (stereo not drawn)	19
C=C(C)Cn1c(C2CC(=O)N(c3ccccc3F)C2)nc2ccccc21 (stereo not drawn)	7
Cc1c(C)c2ccc(OC(C)C(=O)N3C[C@H]4C[C@@H](C3)c3cccc(=O)n3C4)c(C)c2oc1=O (stereo partly drawn)	0
Cc1c(N)cccc1Cl	2
CCCc1cc(C(=O)N(C2CCCCC2)C2CCCCC2)no1	10
Cc1cc(NC(=O)c2cc(CC(C)C)on2)n(-c2ccccc2)n1	6
COc1ccc(C2CC(c3cccc(Cl)c3)n3nc(N)nc3N2)cc1 (stereo not drawn)	-9
COc1cc2c(cc1OC)CN1CCc3cc(OC)c(OC)cc3C1C2 (stereo not drawn)	7

Part of the list above, in CSV form.
SMILES,Hedgehog
CCOCCCNC(=O)Cc1cc(=O)[nH]c(=O)[nH]1,5
Cc1c(N)cccc1Cl,2

(list continues)
SMILES	Hedgehog
Cc1cc2c(cc1S(=O)(=O)CCC(=O)NCCc1ccccc1)OCC(=O)N2	7
O=C(CSc1nnc(Cn2c(=O)sc3ccccc32)n1-c1ccccc1)N1CCCC1	11
Nc1c(C(=O)Nc2ccc3c(c2)OCCO3)nnn1CCc1ccccc1	9
CC(C)Cc1cc(C(=O)Nc2cc(Br)ccc2O)no1	-4
CN1CCN(c2nc3c(c(=O)n(C)c(=O)n3C)n2CCSc2nc3ccccc3s2)CC1	5
Cc1[nH]c2ccccc2c1SCCNC(=O)c1ccc(S(=O)(=O)N2CCCC2)cc1	8
COc1ccc(C(=O)c2coc3ccc(O)c(CN4CCCC4)c23)cc1	7
Cc1cc(OC(C)C(=O)NCCc2c[nH]c3ccccc23)c2c(C)cc(=O)oc2c1 (stereo not drawn)	2
CCc1ccc(NC(=O)CSc2nc3ccccc3nc2N2CCCC2)cc1	7
Cc1c(OCC(=O)NC(Cc2ccc(Cl)cc2)C(=O)O)ccc2c1oc(=O)c1ccccc12 (stereo not drawn)	2
CC(C)[C@H](NC(=O)N1CC(=O)Nc2ccccc21)C(=O)N[C@@H](Cc1c[nH]c2ccccc12)C(=O)O	7
Cc1coc2cc3oc(=O)c(CCC(=O)NCc4ccccn4)c(C)c3cc12	5
CCn1cc(C2=NC(c3ccccc3)CO2)c2ccccc21 (stereo not drawn)	5
Cc1cc(Nc2cccc(C)c2C)n2ncnc2n1	21
CCCCn1c(CNC(=O)Cc2ccccc2)nc2ccccc21	12
O=C(CCS(=O)(=O)c1cc2c(cc1Cl)NC(=O)CO2)NCc1ccc(F)cc1	0
CC1=C(C(N)=O)C(c2cccc(O)c2)n2nc(CCCO)nc2N1 (stereo not drawn)	8
Nc1c(C(=O)NCc2ccccc2)nnn1Cc1cccc(Cl)c1	28
O=C(NCc1ccccc1)C(=O)NCC1OCCN1S(=O)(=O)c1ccc2c(c1)OCCO2 (stereo not drawn)	3
O=Cc1cccn1-c1ccccc1	4
CCOc1ccccc1C(=O)NCC(=O)O	5
CCN(C(=O)c1cc(S(=O)(=O)N2CCc3ccccc32)cn1C)c1ccccc1	5
CC(Oc1ccc2c(-c3ccccc3)cc(=O)oc2c1)C(=O)NC(Cc1c[nH]c2ccc(O)cc12)C(=O)O (stereo not drawn)	12
CSc1oc(-c2ccco2)nc1S(=O)(=O)c1ccc(F)cc1	13
COC(=O)c1ccc(NC(=O)CSc2nnc(Cc3cccn3C)n2-c2ccc(F)cc2)cc1	8
CCOC(=O)c1c(NC(=O)C2CCCCC2)sc2c1CCN(C(C)C)C2	2
COc1cc(C2C(C(=O)OC(C)C)=C(C)Nc3ncnn32)cc(OC)c1OC (stereo not drawn)	6
COc1ccc(-n2c(Cn3c(=O)sc4ccccc43)nnc2SC)cc1	-8
NC(=O)CSc1nnc(Cn2c(=O)sc3ccccc32)n1CCc1ccccc1	19
CCc1cc(=O)oc2c3c(cc(OCC(=O)NCc4ccco4)c12)OC(C)(C)CC3	9
Cc1cc(=O)oc2c3c(cc(OCC(=O)NCC4CCC(C(=O)O)CC4)c12)OC(C)(C)CC3 (stereo not drawn)	7
CC(O)CC(C)O (stereo not drawn)	0
CCCCOC(=O)/C=C\C(=O)OCCCC	4
CCOC(=O)N1CCN(C(=O)CSc2nnc(COc3ccc(Cl)cc3)o2)CC1	13
COC(=O)C1CCN(C(c2cccs2)c2sc3nc(C)nn3c2O)CC1 (stereo not drawn)	4
CCCCn1cc(C(C)(C)C)c(C#N)c1NC(C)=O	15
CC(=O)c1nccs1	2
Cc1c(Cl)ccc2sc(NC(=O)CN3C(=O)c4ccccc4C3=O)nc12	3
COc1cc(NC(=O)C2=CC(c3cccs3)=NS(=O)(=O)N2C)cc(OC)c1OC	29
CN1CCN(C(=O)C2CC(c3ccc(F)cc3)=NO2)CC1 (stereo not drawn)	12
CC(C)c1ccc(NS(=O)(=O)c2cn(C)c(=O)n(C)c2=O)cc1	4
O=C1C2CCCN2C(c2cccc(F)c2)N1c1cccc(Cl)c1 (stereo not drawn)	9
O=C(CCCCCN1C(=O)[C@@H]2Cc3ccccc3CN2C1=O)N[C@@H](Cc1ccc(O)cc1)C(=O)O	9
CC(C)(C)C(=O)Nc1nc2c(s1)COc1ccccc1-2	4
Cc1cc(=O)oc2c3c(cc(OCC(=O)NC4CC4)c12)OC(C)(C)CC3	2
CCOC(=O)c1ccc(NC(=O)CSc2nc3c(c(=O)n2C)SC(C)C3)cc1 (stereo not drawn)	7
O=C(NC1CCCC1)c1ccc(CSc2nc3ccncc3n2Cc2ccc(F)cc2)cc1	19
Cc1nc2ccccc2c2oc(C(=O)Nc3ccc4c(c3)OCCO4)cc12	6
COC(=O)NCC(c1cccnc1)N1CCN(c2ccccc2)CC1 (stereo not drawn)	6
CC(=O)NCCc1ccc(O)cc1	10
O=C1c2ccccc2C(Nc2ccc3c(c2)OCCO3)N1Cc1ccco1 (stereo not drawn)	24
Cc1ccn2cc(CNS(=O)(=O)c3ccc4c(c3)OCCO4)nc2c1	5
Cc1ccccc1NC(=O)NCCN1C(=O)C2C3C=CC(C3)C2C1=O (stereo not drawn)	8
COc1cc(C)c(C(=O)Oc2cc(C)c(C(=O)O)c(O)c2C)c(O)c1C	-3
CC1CC(NC(=O)CCn2c(=O)oc3ccccc32)CC(C)(C)C1 (stereo not drawn)	-5
Cc1cc(NC(=O)c2cc3n(n2)C(C(F)(F)F)CC(c2ccco2)N3)no1 (stereo not drawn)	19
CC(=O)N1CCC(Nc2ccc(C)cc2)CC1	6
COc1cc(-c2cc(=O)c3c(O)c(OC)c(OC)c(OC)c3o2)cc(OC)c1OC	3
Cc1cn([C@H]2C=C[C@@H](CO)O2)c(=O)[nH]c1=O	4
Cc1csc2ncc(C(=O)N(Cc3ccccc3)c3ccccn3)c(=O)n12	2

Arranged by the number under Hedgehog (low to high): 5 from the list above.
SMILES | Hedgehog
Cc1csc2ncc(C(=O)N(Cc3ccccc3)c3ccccn3)c(=O)n12 | 2
COc1cc(-c2cc(=O)c3c(O)c(OC)c(OC)c(OC)c3o2)cc(OC)c1OC | 3
CC(C)c1ccc(NS(=O)(=O)c2cn(C)c(=O)n(C)c2=O)cc1 | 4
COC(=O)NCC(c1cccnc1)N1CCN(c2ccccc2)CC1 (stereo not drawn) | 6
Cc1ccccc1NC(=O)NCCN1C(=O)C2C3C=CC(C3)C2C1=O (stereo not drawn) | 8

More compounds follow:
SMILES	Hedgehog
COc1ccccc1N1CCN(c2cc(=O)n(Cc3ccc(F)cc3)c(=O)[nH]2)CC1	7
Cc1cc(C)c2sc(NC(=O)c3ccc([N+](=O)[O-])o3)nc2c1	8
CCOC(=O)c1ccc(S(=O)(=O)N2CCC(N3CCCCC3)CC2)cc1	20
COc1ccc(-c2cc(=O)oc3c(C)c(OCC(=O)N[C@@H](Cc4ccc(O)cc4)C(=O)O)ccc23)cc1	4
COc1ccc(S(=O)(=O)Cc2ccc(C(=O)NCc3cccs3)o2)cc1	15
Cc1cc2ccccc2n1CCNC(=O)C1CC1	9
NC(=O)COc1ccc(=O)n(-c2ccccc2)n1	1

Six entries already listed, sorted by formula weight, descending.
SMILES	Hedgehog
COc1ccc(-c2cc(=O)oc3c(C)c(OCC(=O)N[C@@H](Cc4ccc(O)cc4)C(=O)O)ccc23)cc1	4
COc1ccccc1N1CCN(c2cc(=O)n(Cc3ccc(F)cc3)c(=O)[nH]2)CC1	7
COc1ccc(S(=O)(=O)Cc2ccc(C(=O)NCc3cccs3)o2)cc1	15
Cc1cc(C)c2sc(NC(=O)c3ccc([N+](=O)[O-])o3)nc2c1	8
Cc1cc2ccccc2n1CCNC(=O)C1CC1	9
Cc1cn([C@H]2C=C[C@@H](CO)O2)c(=O)[nH]c1=O	4
